Assay outcomes from PubChem.
Ecoli rRNA inh: inhibits bacterial ribosomal RNA function over humanized ribosomes | E. coli WT GFP vs humanized-ribosome RFP mutants, fluorescence, 24 h; hits give low values; DMSO median 0, no signal -100 | hit rate 1.6% among 350,000 | AID 720706 | GFP signal change (wild-type ribosome), % (no concentration beside the values);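 active means significant combined selectivity score with lowered wild-type GFP, culture density cut under 30%, mutant RFP and density less affected; inactive means any of these conditions unmet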; further: one replicate is shown; some compounds called inactive have numbers as strong as hits
MLL AF4-AF9 inh: inhibitors of human MLL-AF4/AF9 interaction; P42568; inhibition, % at 10 µM; AlphaScreen, biotin-AF4 peptide binding to FLAG-AF9; hit rate 0.47% among 350,000;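 active means every replicate reaching a set inhibition limit, whatever the replicate mean, cut at about 25% in these data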;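 further: 0% = plate neutral control median and 100% = total signal loss; the record names both 10 and 1 µM as test concentration; the first replicate is given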
Target sequence (P42568 whole entry, looked up): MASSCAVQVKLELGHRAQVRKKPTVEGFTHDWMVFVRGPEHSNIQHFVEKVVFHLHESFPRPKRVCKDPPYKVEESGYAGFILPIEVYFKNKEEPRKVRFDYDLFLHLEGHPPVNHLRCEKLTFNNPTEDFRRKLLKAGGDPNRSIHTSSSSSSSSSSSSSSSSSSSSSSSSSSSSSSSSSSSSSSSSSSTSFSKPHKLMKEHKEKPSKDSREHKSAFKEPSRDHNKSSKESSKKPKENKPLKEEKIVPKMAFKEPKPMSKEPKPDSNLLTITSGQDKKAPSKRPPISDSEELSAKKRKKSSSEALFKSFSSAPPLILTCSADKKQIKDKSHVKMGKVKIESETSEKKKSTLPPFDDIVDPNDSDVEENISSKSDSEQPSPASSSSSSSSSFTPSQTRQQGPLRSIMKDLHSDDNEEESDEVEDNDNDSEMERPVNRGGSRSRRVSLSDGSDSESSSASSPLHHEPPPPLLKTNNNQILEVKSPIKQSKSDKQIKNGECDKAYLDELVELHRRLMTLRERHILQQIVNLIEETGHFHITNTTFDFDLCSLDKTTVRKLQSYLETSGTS
Ecoli rRNA inh OD600: also measured in Ecoli rRNA inh; calls as there; OD600 change, %; measured here: OD600 growth;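 optical density of the mix in the first replicate; 0 = DMSO median and -100 = no signal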
Ecoli rRNA inh RFP: recorded beside Ecoli rRNA inh, whose call it bears; RFP signal change, %; measured here: RFP humanized mutant strains;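 first replicate; 0 = DMSO median and -100 = no signal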
* marks the source's active call; other numbers are inactive results; & = joins results of further samples. These rows are one share of the data; the hit share may differ from the screen's.

SMILES	Ecoli rRNA inh	Ecoli rRNA inh OD600	Ecoli rRNA inh RFP	MLL AF4-AF9 inh
C[C@H]1CN([C@@H](C)CO)C(=O)Cc2cc(NC(=O)CCC(F)(F)F)ccc2O[C@@H]1CN(C)C	10	10	-1.6	-4.7
C[C@@H]1CN([C@@H](C)CO)C(=O)Cc2cc(NC(=O)CCCCCC(=O)Nc3ccccc3N)ccc2O[C@@H]1CN(C)Cc1ccc2c(c1)OCO2	-5	-3	0.4	2.2
O=C(c1cnccn1)N1CC(=O)N2[C@@H](CO)[C@@H](c3ccc(-c4ccc(F)cc4)cc3)[C@@H]2C1	3	15	-1.4	-1.4
O=C(Nc1ccc2c(c1)[C@H]1C[C@@H](CC(=O)N3CCOCC3)O[C@@H](CO)[C@H]1O2)Nc1ccccc1F	4	2	-2.3	1.2
COc1cccc(-c2ccc([C@H]3[C@@H](CO)N4C(=O)CN(C(=O)c5cccnc5)C[C@H]34)cc2)c1	2	8	1.3	-3.2
Cc1ccc(S(=O)(=O)N(C)C[C@@H]2Oc3ccc(NC(=O)c4ccncc4)cc3C(=O)N([C@@H](C)CO)C[C@H]2C)cc1	-3	3	-1.7	-0.6
C[C@H](CO)N1C[C@H](C)[C@H](CN(C)CC2CC2)Oc2ccc(NS(=O)(=O)c3cn(C)cn3)cc2CC1=O	0	8	-2.9	-13
C[C@@H]1CN([C@@H](C)CO)C(=O)CCCn2cc(nn2)CO[C@H]1CN(C)Cc1ccc(C(F)(F)F)cc1	-2	-2	-0.1	-0.9
CC(=O)N1[C@H](C(=O)NCc2ccccc2Cl)[C@@H](CO)[C@@H]2Cn3c(ccc(-c4cccnc4)c3=O)[C@@H]21	3	1	-4.0	-1.8
CCNC(=O)C[C@H]1CC[C@@H]2[C@@H](COc3ccc(NC(=O)c4cccc(OC)c4)cc3C(=O)N2C)O1	-1	2	0.1	-2.4
C[C@@H]1CN([C@H](C)CO)S(=O)(=O)c2ccc(C#CC3CC3)cc2O[C@@H]1CN(C)C(=O)c1cccc(F)c1	-4	-19	2.8	4.9
C[C@@H]1CN([C@H](C)CO)S(=O)(=O)c2ccc(C#CCN(C)C)cc2O[C@H]1CN(C)Cc1ccc(F)cc1	-19	-48	24	22
COc1ccc(NC(=O)N2CC3(C2)CN(C(=O)CN2CCOCC2)[C@H](CO)c2[nH]c4cc(OC)ccc4c23)cc1	0	10	-2.7	0.6
C[C@@H]1CN([C@@H](C)CO)S(=O)(=O)c2ccc(-c3ccccc3)cc2O[C@H]1CN(C)S(=O)(=O)c1ccccc1F	-4	-11	0.2	1.1
C=C(C(=O)c1ccccc1)C(NC(C)(C)C)c1ccccc1 (configuration not stated)	4	0	5.0	-0.8
COCC(=O)N(C)C[C@H]1Oc2cc(C#CC(C)(C)O)ccc2S(=O)(=O)N([C@H](C)CO)C[C@H]1C	4	13	-8.0	-4.1
C[C@H]1CCCCO[C@@H](CN(C)C(=O)CCCN(C)C)[C@@H](C)CN([C@@H](C)CO)C(=O)c2cc(NS(=O)(=O)c3ccccc3)ccc2O1	1	3	-1.8	1.4
O=C(C[C@@H]1CC[C@H](NS(=O)(=O)c2ccccc2)[C@@H](CO)O1)NCCN1CCCCC1	0	-2	-1.0	-0.9
CC(C)OC(=O)N(C)C[C@@H]1OCc2cn(nn2)CCCC(=O)N([C@@H](C)CO)C[C@H]1C	2&1	16&3	-0.7&1.7	-2.7&0.3
C[C@@H]1CN([C@@H](C)CO)C(=O)c2cc(NS(=O)(=O)c3cccs3)ccc2O[C@H]1CN(C)CC1CC1	2	6	0.1	0.7

7 compounds from above, limited to Ecoli rRNA inh RFP:
SMILES	Ecoli rRNA inh RFP
C[C@@H]1CN([C@@H](C)CO)C(=O)Cc2cc(NC(=O)CCCCCC(=O)Nc3ccccc3N)ccc2O[C@@H]1CN(C)Cc1ccc2c(c1)OCO2	0.4
O=C(c1cnccn1)N1CC(=O)N2[C@@H](CO)[C@@H](c3ccc(-c4ccc(F)cc4)cc3)[C@@H]2C1	-1.4
O=C(Nc1ccc2c(c1)[C@H]1C[C@@H](CC(=O)N3CCOCC3)O[C@@H](CO)[C@H]1O2)Nc1ccccc1F	-2.3
COc1cccc(-c2ccc([C@H]3[C@@H](CO)N4C(=O)CN(C(=O)c5cccnc5)C[C@H]34)cc2)c1	1.3
Cc1ccc(S(=O)(=O)N(C)C[C@@H]2Oc3ccc(NC(=O)c4ccncc4)cc3C(=O)N([C@@H](C)CO)C[C@H]2C)cc1	-1.7
C[C@H](CO)N1C[C@H](C)[C@H](CN(C)CC2CC2)Oc2ccc(NS(=O)(=O)c3cn(C)cn3)cc2CC1=O	-2.9
C[C@@H]1CN([C@@H](C)CO)C(=O)CCCn2cc(nn2)CO[C@H]1CN(C)Cc1ccc(C(F)(F)F)cc1	-0.1

Continued.
SMILES	Ecoli rRNA inh	Ecoli rRNA inh OD600	Ecoli rRNA inh RFP	MLL AF4-AF9 inh
C[C@H]1CN([C@@H](C)CO)C(=O)c2cccc(NS(=O)(=O)c3ccc(Cl)cc3)c2O[C@H]1CN(C)Cc1ccc(C(=O)O)cc1	3	4	-1.7	-4.7
O=C(Nc1ccccc1)c1cc(C2CCCCN2S(=O)(=O)c2ccc(F)cc2F)on1 (configuration not stated)	-5	-17	-0.7	1.2
C[C@@H](O)C#Cc1ccc([C@H]2[C@H](CO)N3CCCCN(C(=O)Nc4ccccc4)C[C@@H]23)cc1	3	12	2.4	1.5
O=C(CC1CC1)Nc1ccc2c(c1)[C@@H]1C[C@H](CC(=O)N3CCc4ccccc4C3)O[C@H](CO)[C@@H]1O2	1	3	-1.9	-1.4
COc1ccc(-c2ccc(CN3C(C)C(=O)N(Cc4cn(Cc5ccco5)nn4)CCS3(=O)=O)cc2)cc1 (configuration not stated)	-12	-18	9.5	1.9
C[C@H](CO)N1C[C@H](C)[C@@H](CN(C)Cc2ccccc2)Oc2cc(/C=C/c3ccccc3)ccc2S1(=O)=O	-4	6	-4.3	6.5
C[C@H](CO)N1C[C@H](C)[C@@H](CN(C)C)Oc2c(NC(=O)Nc3ccccc3)cccc2C1=O	2	13	-2.2	-11
CNC[C@@H]1Oc2cc(C#Cc3cccnc3)ccc2S(=O)(=O)N([C@@H](C)CO)C[C@H]1C	-1	6	-0.8	0.9
COc1cccc(NC(=O)C[C@@H]2CC[C@H]3[C@H](COc4ccc(NC(=O)c5ccccc5F)cc4C(=O)N3C)O2)c1	0	0	2.7	-19
C[C@@H]1CN([C@H](C)CO)C(=O)c2cc(NS(=O)(=O)c3ccc(Cl)cc3)ccc2O[C@H]1CN(C)S(=O)(=O)c1ccc(Cl)cc1	-2	-7	0.3	-1.7
Cc1noc(C)c1NC(=O)N(C)C[C@H]1Oc2ccc(N(C)C)cc2C(=O)N([C@@H](C)CO)C[C@H]1C	-6	-9	-2.8	1.7
C[C@@H]1CN([C@H](C)CO)C(=O)Cc2cc(NS(=O)(=O)c3cn(C)cn3)ccc2O[C@@H]1CN(C)Cc1ccc(C(=O)O)cc1	1	2	-0.1	-2.8
C[C@@H]1CN([C@H](C)CO)C(=O)c2cc(NC(=O)C3CCCCC3)ccc2O[C@@H](C)CCCCO[C@H]1CN(C)S(=O)(=O)c1ccc(Cl)cc1	-1	0	0.5	-2.5
COC(=O)C[C@@H]1C[C@@H]2c3cc(NS(C)(=O)=O)ccc3O[C@@H]2[C@H](CO)O1	5	8	-1.1	1.1
C[C@@H]1CN([C@@H](C)CO)C(=O)c2cc(C#C[C@@H](C)O)cnc2O[C@H]1CN(C)C(=O)Nc1ccc(C(F)(F)F)cc1	3	3	-3.3	-1.4
Cc1noc(C)c1S(=O)(=O)Nc1ccc2c(c1)C(=O)N([C@H](C)CO)C[C@@H](C)[C@@H](CN(C)Cc1ccc(C(F)(F)F)cc1)O2	-3	-12	1.3	-0.7
Cc1ccc([C@H]2C[C@@H](n3cc(-c4ccc(F)cc4)nn3)[C@H](O)CN2Cc2cccs2)cc1	2	4	1.3	-2.5
O=C(NNC(=O)c1ccc(Br)o1)c1ccc(NS(=O)(=O)c2cccs2)cc1	3	9	2.6	-8.9
C[C@H]1CN([C@@H](C)CO)C(=O)c2cc(C3=CCCCC3)cnc2O[C@H]1CN(C)C(=O)Nc1ccc(F)cc1	-6	-3	4.2	-0.3
CCOc1ccc(CCN2C(=S)N([C@@H](CC(C)C)CN3CCC[C@@H]3CN3C(=S)NC[C@@H]3Cc3ccccc3)C[C@@H]2Cc2ccc(O)cc2)cc1	19	16	10	-44
COc1ccc(NC(=O)CCCNC(=O)c2ccc(Cl)cc2)cc1S(=O)(=O)N1CCOCC1	-11	-10	2.0	-0.5
CCCC(=O)N1CC2(CN[C@@H](CO)c3c2c2ccc(OC)cc2n3C)C1	2	11	-2.3	0.6
C[C@@H]1CN([C@H](C)CO)C(=O)c2cc(NC(=O)Cc3ccccc3)ccc2O[C@@H]1CN(C)Cc1ccc(C(=O)Nc2ccccc2N)cc1	1	-9	-2.6	3.4
COC(=O)C[C@@H]1CC[C@@H]2[C@H](COc3ccc(NC(=O)c4cscn4)cc3C(=O)N2C)O1	2	9	3.0	-3.2
CO[C@H]1CN(C)C(=O)c2ccc(NS(C)(=O)=O)cc2OC[C@H](C)NC[C@H]1C	1	0	-1.7	-2.5
CN(C)CC(=O)N[C@@H]1CC[C@@H](CCNC(=O)Nc2ccc(Cl)cc2)O[C@@H]1CO	-11	-10	3.0	8.4
O=C(Nc1ccccc1)N[C@H]1CC[C@H](CCn2cc(-c3ccccc3F)nn2)O[C@@H]1CO	1	7	-3.6	-2.8
C[C@@H]1CN([C@@H](C)CO)C(=O)c2c(c3ccccc3n2C)-c2ccccc2CO[C@H]1CN(C)C(=O)[C@H](C)c1ccccc1	6&2	1&-3	-0.5&4.3	4.5
C[C@H](CO)N1C[C@H](C)[C@H](CN(C)C(=O)Cc2ccccc2)Oc2ncc(C#Cc3ccccc3F)cc2C1=O	-6	-16	19	-1.0
Cc1ccc(S(=O)(=O)/N=C2\C=C(NS(=O)(=O)c3ccccc3)C(=O)c3ccccc32)cc1	-6	-9	-1.2	-1.9
COCC(=O)N(C)C[C@H]1Oc2cc(-c3cccc(F)c3)ccc2S(=O)(=O)N([C@@H](C)CO)C[C@H]1C	-5	-1	-1.4	-2.4
COc1cccc(-c2ccc3c(c2)[C@H]2[C@H](CCN2C(=O)CN2CCOCC2)[C@H](CO)N3)c1	-3	7	-4.4	-2.0
CC(C)NC(=O)N(C)C[C@@H]1Oc2cc(-c3ccccc3)ccc2S(=O)(=O)N([C@H](C)CO)C[C@@H]1C	-6	6	-0.4	1.4
Cc1ccc(S(=O)(=O)N[C@H]2CC[C@@H](CCn3cc(C4CCCCC4)nn3)O[C@H]2CO)cc1	-6	-9	0.6	-1.0
C[C@@H]1CN([C@H](C)CO)C(=O)Cc2cc(NS(=O)(=O)c3cn(C)cn3)ccc2O[C@H]1CN(C)Cc1ccncc1	1	8	-0.4	-2.0
C[C@H](CO)N1C[C@H](C)[C@@H](CN(C)S(=O)(=O)c2cccs2)Oc2ccc(NC(=O)Cn3cnnn3)cc2CC1=O	0	4	0.9	0.0
C[C@@H]1CN([C@H](C)CO)C(=O)c2cccc(NS(=O)(=O)c3cccs3)c2O[C@@H]1CN(C)Cc1ccncc1	-4	-13	-0.3	0.3
C[C@H]1CN([C@@H](C)CO)S(=O)(=O)c2ccc(-c3cccnc3)cc2O[C@@H]1CN(C)C(=O)C1CCC1	-5	-10	-2.1	-0.2
C[C@@H]1CN([C@@H](C)CO)C(=O)Cc2cc(NS(=O)(=O)c3cn(C)cn3)ccc2O[C@@H]1CN(C)S(C)(=O)=O	2	4	-3.8	-1.9
C[C@H](CO)N1C[C@H](C)[C@H](CN(C)C(=O)Nc2ccccc2)OCCCC[C@H](C)Oc2ccc(NS(=O)(=O)c3ccccc3)cc2C1=O	-3	1	1.3	0.3

Filtered by structure: the entries above containing a CF3 group (four)
SMILES	Ecoli rRNA inh	Ecoli rRNA inh OD600	Ecoli rRNA inh RFP	MLL AF4-AF9 inh
C[C@H]1CN([C@@H](C)CO)C(=O)Cc2cc(NC(=O)CCC(F)(F)F)ccc2O[C@@H]1CN(C)C	10	10	-1.6	-4.7
C[C@@H]1CN([C@@H](C)CO)C(=O)CCCn2cc(nn2)CO[C@H]1CN(C)Cc1ccc(C(F)(F)F)cc1	-2	-2	-0.1	-0.9
C[C@@H]1CN([C@@H](C)CO)C(=O)c2cc(C#C[C@@H](C)O)cnc2O[C@H]1CN(C)C(=O)Nc1ccc(C(F)(F)F)cc1	3	3	-3.3	-1.4
Cc1noc(C)c1S(=O)(=O)Nc1ccc2c(c1)C(=O)N([C@H](C)CO)C[C@@H](C)[C@@H](CN(C)Cc1ccc(C(F)(F)F)cc1)O2	-3	-12	1.3	-0.7

Other structures
SMILES	Ecoli rRNA inh	Ecoli rRNA inh OD600	Ecoli rRNA inh RFP	MLL AF4-AF9 inh
O=C(C[C@H]1C=C[C@H](NC(=O)CC2CC2)[C@@H](CO)O1)NCC(F)(F)F	1	-4	-0.4	2.4
Cc1noc(C)c1NC(=O)Nc1ccc2c(c1)CC(=O)N([C@H](C)CO)C[C@H](C)[C@H](CN(C)S(=O)(=O)c1ccc(F)cc1)O2	1	2	-2.8	-1.6
O=C(N[C@@H]1CC[C@@H](CCNS(=O)(=O)c2ccccc2)O[C@H]1CO)c1cnccn1	-2	-1	-2.2	0.8
C[C@@H]1CN([C@@H](C)CO)C(=O)c2cc(-c3ccncc3)cnc2O[C@H]1CN(C)C(=O)c1ccc(F)cc1	3	0	-3.7	-4.6
COc1ccc(S(=O)(=O)N(C)C[C@@H]2Oc3ccc(NC(=O)NC4CCCCC4)cc3CC(=O)N([C@H](C)CO)C[C@@H]2C)cc1	-2	-6	0.7	0.6
